# YopH PTP inh – YopH tyrosine phosphatase inhibitors, primary screen, biochemical, fluorescence Ex485/Em525; AID 898, 2007; 140,000 tested, 0.16% active; inhibition, %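 (about 10 µM by stock and volumes)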; YopH tyrosine phosphatase [Yersinia enterocolitica];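 active = inhibition of 50% or more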;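 note: controls were vehicle for no effect and minimum signal wells for full effect; inactives centre near -20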
# Arbovirus inh – antivirals against arbovirus infection, primary screen, cell-based, full library, 10K replicate subset; arbovirus infection cell-based antiviral screen; inhibition, % at 10 µM; 200,000 tested, 0.37% active;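 active = inhibition from about 30%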;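 note: bluetongue infection of BSR cells; cell survival read as ATP light after 72 h; 0% = infected wells without compound and 100% = uninfected wells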
# Mtb growth – M. tuberculosis H37Rv growth inhibitors, H37Rv strain (AID 1626); M. tuberculosis H37Rv growth inhibition; higher % means a stronger effect; inhibition, % at 10 µM, or IC50 in µM where a hit was titrated; 220,000 tested, 0.95% active;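 active = confirmed in a dose series; inconclusive = inhibition above 80% but not taken into the dose series; inactive = below 80% or under 30% at every dose of the series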;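 note: bacteria incubated seven days before Alamar blue readout; 0% = bacteria only wells and 100% = bacteria with antibiotic wells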
# Mtb betalactam – beta-lactam sensitization of Mtb H37Rv, H37Rv; M. tuberculosis H37Rv growth with meropenem, percent inhibition; hits of this screen are not shown here; 330,000 tested, 0.27% active; AID 434955, 2010; inhibition, % at 25 µM;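 active = about 74% or more and at least 40 points above the plate without the antibiotic, then above 30% in a dose series; inconclusive = first-round hits that could not be retested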;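 note: growth measured after seven days incubation then overnight dye step; 0% = bacteria only wells and 100% = bacteria with antibiotic; twin plates without the antibiotic show which effects depend on it; some results filed as inactive read as strong as hits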
# RecA intein inh – Mtb RecA intein splicing inhibitors, primary screen, biochemical, fluorescence, HTS; Protein RecA (Mycobacterium tuberculosis (strain ATCC 25618 / H37Rv)), P9WHJ3; inhibition, %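 (about 9 µM by stock and volumes)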; cell-free RecA intein splicing; 290,000 tested, 0.75% active; in the data active = inhibition above about 30%; inconclusive = no clear call, values can overlap the other calls;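 note: 0% = vehicle wells and 100% = reference inhibitor control wells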
# Target sequence (P9WHJ3 whole entry, looked up): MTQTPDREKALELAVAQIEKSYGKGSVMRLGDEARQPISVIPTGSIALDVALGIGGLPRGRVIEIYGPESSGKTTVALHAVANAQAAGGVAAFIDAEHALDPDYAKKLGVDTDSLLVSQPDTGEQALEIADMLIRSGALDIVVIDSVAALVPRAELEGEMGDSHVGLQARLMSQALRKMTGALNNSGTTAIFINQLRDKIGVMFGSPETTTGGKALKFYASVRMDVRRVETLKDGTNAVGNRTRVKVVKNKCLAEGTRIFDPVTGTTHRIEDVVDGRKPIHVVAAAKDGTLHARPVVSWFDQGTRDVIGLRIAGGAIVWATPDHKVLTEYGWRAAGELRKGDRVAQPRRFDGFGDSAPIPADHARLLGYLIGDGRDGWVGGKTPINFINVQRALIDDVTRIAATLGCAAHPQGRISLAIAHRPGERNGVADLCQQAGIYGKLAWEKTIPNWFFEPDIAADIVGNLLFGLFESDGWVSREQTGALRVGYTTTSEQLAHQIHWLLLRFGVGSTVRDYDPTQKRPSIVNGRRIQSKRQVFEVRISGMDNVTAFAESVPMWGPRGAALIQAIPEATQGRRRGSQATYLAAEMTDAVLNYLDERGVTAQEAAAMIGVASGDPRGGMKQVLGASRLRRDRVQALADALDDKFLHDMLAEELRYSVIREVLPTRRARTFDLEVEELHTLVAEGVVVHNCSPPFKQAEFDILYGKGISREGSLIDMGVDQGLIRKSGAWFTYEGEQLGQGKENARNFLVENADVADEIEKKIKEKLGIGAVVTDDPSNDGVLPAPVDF
# Arbovirus inh repeat – also measured in Arbovirus inh; calls as there; inhibition, %; measured here: 10K subset replicate screen; many hits read low in the repeat;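 first of two repeat runs on a subset; 0% = infected and 100% = uninfected wells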
# Starred values were filed as active, the others as inactive; u = inconclusive; x = not tested or not shown. Not all compounds are listed; the hit share may differ from the screen's.
SMILES,YopH PTP inh,Arbovirus inh,Mtb growth,Mtb betalactam,RecA intein inh,others
COc1ccc(C(C)=O)cc1COc1ccc(-n2cnnn2)cc1,-3.1,-1.2,5.7%,-4.7,2.6,
O=C(NCCCn1ccnc1)/C(=C\c1cccnc1)NC(=O)c1cccc(Br)c1,-29.3,3.1,4.8%,u,-0.5,
O=[N+]([O-])c1cccc(/C=N/N2CCN(c3ccccn3)CC2)c1,-33.2,-13.9,0.6%,-8.7,0.8,
NS(=O)(=O)c1ccc(N=Nc2c(O)ccc3ccccc23)cc1,x,-10.3,-10.4%,7.3,-6.9,
Cc1nc2sc3c(c2c(=O)n1N)CCC3,x,15.9,-7.2%,-1.3,-2.5,
COc1cccc(/C=N/NC(=O)c2ccc(=O)n(C)c2)c1OC,-35.5,-4.1,-8.7%,1.8,-1.8,
O=C(c1ccccc1)N1CCc2ccccc21,7.4,-4.6,2.1%,18.0,0.0,
Cc1ccccc1NC(=O)CSC1=C(C#N)C(c2ccsc2)CC(=O)N1 (stereo not drawn),15.8,-30.6,0.9%,-14.7,2.8,
COc1cccc(/C=C(/C(=O)OCC(N)=O)c2ccccc2)c1,x,12.0,4.4%,2.4,1.8,
CCOC(=O)c1csc(NC(=O)CSc2nnnn2CC)n1,-37.6,-0.5,1.4%,44.6,3.3,
CC1=[N+]([O-])C(C)(C)C(C)N(O)C1=O (stereo not drawn),-24.2,2.5,6.7%,-2.4,-3.6,
CCNC(=S)Nc1cccc(F)c1C,x,2.6,1.7%,0.8,-1.5,
COc1cc(-c2csc(C)n2)ccc1O,-14.9,0.5,-0.2%,5.2,-4.6,
CCC1(C(=O)OC)NC(c2ccco2)C2C(=O)N(c3ccccc3)C(=O)C21 (stereo not drawn),-38.3,10.0,-10.7%,-5.0,-1.2,
COc1ccc(CNC(=O)CCSCc2cccc(F)c2)cc1,x,x,x,2.5,0.6,
O=C(CC1C(=O)NCCN1Cc1cccc(C(F)(F)F)c1)NC1CCCCCC1 (stereo not drawn),x,x,x,-8.7,1.1,
CCn1c(CSc2nc3ccccc3s2)nnc1SCC(=O)c1ccc(Cl)cc1,-10.7,-1.6,0.4%,-24.0,1.1,
CCn1cc([C@@H]2C[C@H]3CN(Cc4cccc(Cl)c4)C(=O)[C@]34CCCN24)c(C)n1,x,-0.7,-9.3%,0.7,1.2,
O=C(/C=C/c1ccccc1Cl)NCCN1CCOCC1,-41.0,-1.1,-7.5%,-5.7,6.6,
COc1ccc(C)cc1NC(=O)C1CCCN(S(=O)(=O)c2cccc3nonc23)C1 (stereo not drawn),7.0,-4.4,7.1%,-9.7,1.3,
O=C(N/N=C/c1ccc(O)c(O)c1)c1cccc(S(=O)(=O)N2CCCCC2)c1,x,-9.3,1.1%,-0.1,x,
COc1ccc(C(CNC(=O)c2oc3cc(Br)ccc3c2C)N2CCCCC2)cc1 (stereo not drawn),x,x,x,99.3,2.9,
CCCC(c1nnnn1Cc1cccs1)N1CCN(c2nc3ccccc3s2)CC1 (stereo not drawn),-43.3,-5.9,6.7%,0.3,-0.9,
O=C(CSc1ncnc2c1oc1ccccc12)NCC1CCCO1 (stereo not drawn),-25.2,x,-4.7%,-4.1,-0.4,
CCn1c(=O)c2cc(C(=O)NCCOC)sc2c2ccccc21,x,x,x,-9.2,-1.4,

# Among those listed so far, these have an aryl thioether with sulfur outside any ring:
SMILES,YopH PTP inh,Arbovirus inh,Mtb growth,Mtb betalactam,RecA intein inh,others
CCOC(=O)c1csc(NC(=O)CSc2nnnn2CC)n1,-37.6,-0.5,1.4%,44.6,3.3,
CCn1c(CSc2nc3ccccc3s2)nnc1SCC(=O)c1ccc(Cl)cc1,-10.7,-1.6,0.4%,-24.0,1.1,
O=C(CSc1ncnc2c1oc1ccccc12)NCC1CCCO1 (stereo not drawn),-25.2,x,-4.7%,-4.1,-0.4,

# The list goes on:
SMILES,YopH PTP inh,Arbovirus inh,Mtb growth,Mtb betalactam,RecA intein inh,others
CC1CN(c2oc(-c3ccco3)nc2C#N)CC(C)O1 (stereo not drawn),-36.6,7.4,3.0%,-5.1,-1.3,
COc1ccc(NS(=O)(=O)c2ccc(NS(=O)(=O)c3cccc(C(=O)O)c3)cc2)cc1,x,x,x,-6.8,-2.7,
COc1ccc(N2CC(C(=O)N3CCN(c4ccccc4F)CC3)CC2=O)cc1 (stereo not drawn),x,x,x,1.5,-2.1,
CCOc1ccccc1Nc1nnc(SCc2ccc(C(=O)OC)o2)s1,-46.1,3.0,-3.0%,-8.1,2.3,
O=C(CCCCn1c(=O)[nH]c2ccsc2c1=O)NCc1ccc2c(c1)OCO2,-36.0,-3.4,-4.6%,3.8,0.4,
CCOc1ccc(C(CC(=O)O)NC(=O)C(CC)c2ccccc2)cc1 (stereo not drawn),x,x,x,-2.2,-3.1,
CCOc1ccc2nc(SCC(=O)NCc3ccccc3)[nH]c2c1,x,x,x,-3.3,0.1,
CCOC(=O)C1C(=O)CC(C)(O)C(C(=O)OCC)C1c1cccc(OC(F)(F)C(F)F)c1 (stereo not drawn),-9.2,10.7,-8.8%,48.9,1.1,
CC(C)CCNC(=O)c1c(N)n(Cc2ccc3c(c2)OCO3)c2nc3ccccc3nc12,-14.2,-19.5,5.7%,31.8,-3.8,
CCOc1ccc(C(=O)NC2CC3CCCC(C2)N3CC(C)C)cc1 (stereo not drawn),x,7.5,1.0%,-3.5,1.8,
Cc1ccc2nc(N3C(=O)C(O)=C(C(=O)c4cc5ccccc5o4)C3c3cccs3)sc2c1 (stereo not drawn),-29.2,32.0*,x,0.9,3.6,
c1ccc(-n2c(-c3ccco3)nnc2-c2ccco2)cc1,-16.9,13.5,-4.2%,-1.8,0.7,
O=C(O)c1cc(NS(=O)(=O)c2ccc(N3CCOCC3)c([N+](=O)[O-])c2)cc(C(=O)O)c1,-14.1,8.2,-3.7%,-2.1,-1.8,
NC(=O)Cn1cnc2c(nnn2-c2cccc(Cl)c2)c1=O,x,x,x,0.3,-0.8,
CCCCCCCc1nc2nc(C)c(Br)c(=O)n2[nH]1,x,x,12.9%,0.9,3.0,
CCC(C)(C)n1nnnc1C(c1ccc(O)cc1)N1CCc2ccccc2C1 (stereo not drawn),x,-3.0,-4.2%,2.7,1.6,
O=C(CCC(=O)c1cccs1)Nc1ccc(N2CCCCC2)cc1,x,-5.6,0.5%,-3.1,2.6,
CCOC(=O)N1CCN(C(=O)c2oc3ccc(S(=O)(=O)N4CCOCC4)cc3c2C)CC1,-20.0,7.0,-5.7%,u,-3.2,Arbovirus inh repeat=5.8
CCOC(=O)c1ccc(S(=O)(=O)NNC(=O)COc2ccccc2C)cc1,-27.1,-2.2,0.8%,4.4,-0.2,
Cc1cc(NC(=O)CSc2nnc(-c3cccnc3)n2C)no1,-43.3,18.7,2.0%,-5.1,1.9,
Nc1c(/C=C2/C=CC(=O)C(O)=C2)c(=O)nc2sc(CC(=O)N3CCCC3)nn12,x,x,x,0.8,-5.2,
Cc1nc2ncccn2c1-c1csc(Nc2ccccc2)n1,-9.3,-6.2,8.2%,35.5,1.6,
O=C(CSCC(=O)N1CCCc2ccccc21)Nc1nc(-c2ccccc2)cs1,-32.4,13.5,9.0%,-1.2,9.5,
COc1cccc(O)c1CN1CCC(C(=O)Nc2ccc(-c3cccc(C)c3)cc2)CC1,x,x,x,99.4,1.3,
C=C(C)COc1ccc(-c2ncncc2-c2ccccc2)c(O)c1,x,x,x,-2.1,0.1,

# Brought forward from above: 2 compounds, followed by the next part.
SMILES,YopH PTP inh,Arbovirus inh,Mtb growth,Mtb betalactam,RecA intein inh,others
COc1cccc(O)c1CN1CCC(C(=O)Nc2ccc(-c3cccc(C)c3)cc2)CC1,x,x,x,99.4,1.3,
C=C(C)COc1ccc(-c2ncncc2-c2ccccc2)c(O)c1,x,x,x,-2.1,0.1,
Cc1noc(NS(=O)(=O)c2ccc(NC(=O)/C=C/c3ccc(C(C)C)cc3)cc2)c1C,x,x,x,-6.6,5.5,
O=C(N/N=C/c1ccc([N+](=O)[O-])cc1)C(=O)N1CCCC1,x,-7.0,2.6%,-0.6,-2.1,
CCOc1ccc(-n2c(SCC(=O)NCc3ccco3)nnc2-c2c[nH]c3ccccc23)cc1,-30.5,-18.0,5.0%,-1.6,8.6,
O=C(/C=C/c1ccco1)Nc1cccc(NC(=O)/C=C/c2ccco2)n1,-33.4,7.0,14.0%,-2.0,-5.3,
COc1ccc(C(=O)NC2CCc3ccccc32)cc1OC1CCN(C(C)=O)CC1 (stereo not drawn),x,x,x,8.2,0.1,
CCN1C(=NCCN2CCOCC2)N[C@@H](c2ccccc2)C(C(=O)OC)=C1C,x,x,x,-0.9,1.4,
CCCn1c2ccccc2c2cnn(CC(=O)N3CCN(C4CCCCC4)CC3)c(=O)c21,x,x,x,10.5,0.2,
C[C@H](NC(=O)c1nc[nH]c1C(=O)NCCCCCN)C(=O)OC(C)(C)C,x,x,x,-11.6,0.0,
Cc1nc(-c2nnc(SCC(=O)Nc3ccc(Cl)cc3)n2C)cs1,x,x,-5.9%,-10.5,-0.5,
CCN(CC)c1ccc(/C=N/N2CCN(Cc3ccc(Cl)cc3)CC2)c(O)c1,x,x,7.0%,4.9,-1.4,
Cn1nc(C(=O)OCC(=O)N2CCc3ccccc32)c2ccccc2c1=O,-51.8,2.1,-2.9%,0.5,x,
CC(C)(C)c1ccc(C(=O)c2c[nH]c(C(=O)NCC3CCCO3)c2)cc1 (stereo not drawn),-43.4,0.2,13.7%,38.3,2.8,
CCc1ccc(OCC(=O)NNC(=O)CSc2ncnc3sc(C)c(C)c23)cc1,-19.6,-9.9,-5.2%,-4.1,-4.8,
CCN(CC)C(=O)c1cnn(-c2ccccc2)c1NC(=O)c1ccco1,-4.3,2.0,8.9%,6.8,2.1,
CN(C)S(=O)(=O)c1cccc(COC(=O)CN2CCCCCC2=O)c1,x,x,x,5.4,2.7,
CSc1nnnn1-c1c(C)cc(C)cc1C,x,x,-3.0%,0.7,-1.2,
O=c1cccc2n1CC1CC2CN(C(c2ccccc2)c2sc3ncnn3c2O)C1 (stereo not drawn),-17.8,8.8,2.5%,1.7,2.7,Arbovirus inh repeat=1.4
CCn1cc(C(=O)NCc2ccc(Cl)cc2)c(=O)c2cc(S(=O)(=O)N(C)C)ccc21,x,x,x,3.4,-1.8,
Cn1c(SCc2nc(-c3cccs3)no2)nnc1C1CCCCC1,8.5,10.3,0.2%,-13.2,-0.4,
O=C(CN1CCN(Cc2ccc(Cl)cc2)CC1)N/N=C/c1ccncc1,-15.3,0.4,4.6%,-6.4,0.9,
CC(OC(=O)c1ccc(NC(=O)CC#N)cc1)C(=O)Nc1ccc(Oc2ccccc2)cc1 (stereo not drawn),x,x,x,34.7,7.1,
N#Cc1c(/N=C/c2cccs2)sc2c1CCCCC2,-8.6,-1.4,-4.5%,0.3,0.5,
NC(=NC(=O)c1ccccc1)N1CCN(C(c2ccccc2)c2ccccc2)CC1,x,x,0.0%,-12.2,2.5,
CCN(CC)S(=O)(=O)c1ccc(NCCc2ccccn2)nc1,x,x,x,2.0,-0.8,
COc1ccc(/C=C2\N=C(SC)SC2=O)cc1OC,-8.5,-1.6,-1.0%,53.9,0.6,

# Next structures follow.
SMILES,YopH PTP inh,Arbovirus inh,Mtb growth,Mtb betalactam,RecA intein inh,others
COc1ccccc1CCC(=O)OCC(=O)Nc1cc(C)nn1-c1ccccc1,x,x,x,2.9,-3.8,
CCOC(=O)N1CCN(C(=S)NC(=O)c2cc(Br)ccc2Cl)CC1,x,1.9,-7.4%,1.7,3.4,
C/C(=N\NC(=S)Nc1ccccc1)c1c(O)n(C)c(=O)n(C)c1=O,-22.8,3.6,-3.4%,36.9,-2.2,
CN1C(=O)N(C)C(=O)C2(Cc3cc([N+](=O)[O-])ccc3N(C)C2)C1=O,x,-2.4,-9.7%,-9.0,3.2,
Cc1cc(OCC(=O)N2CCC(C(N)=O)CC2)c2c(C)cc(=O)oc2c1,x,x,x,7.7,-0.8,
Cc1cc(=O)[nH]c(SCC(=O)N2CCCCC2)n1,x,x,x,-0.7,0.9,
Cc1nc2nc(SCC(=O)NCc3ccco3)nn2c(C)c1Cc1c(F)cccc1Cl,-47.5,-11.7,0.4%,-4.1,2.3,

# Random excerpt: two compounds from above
SMILES,YopH PTP inh,Arbovirus inh,Mtb growth,Mtb betalactam,RecA intein inh,others
CCOC(=O)N1CCN(C(=S)NC(=O)c2cc(Br)ccc2Cl)CC1,x,1.9,-7.4%,1.7,3.4,
Cc1cc(OCC(=O)N2CCC(C(N)=O)CC2)c2c(C)cc(=O)oc2c1,x,x,x,7.7,-0.8,
